D2 potentiator = positive allosteric modulators of human D2 dopamine receptor; P14416; hit rate 0.23% among 360,000; DiscoveRx D2 beta-arrestin cells, luminescence, 90 min; 100% = 57 uM dopamine signal; potentiation, % (no concentration beside the values); active = potentiation of 50% or more; inconclusive = 30% to 50%; inactive = 30% or less;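 note: compound concentration not given in the record; tested on top of an EC20 dose of dopamine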
Target sequence (P14416 whole entry, looked up): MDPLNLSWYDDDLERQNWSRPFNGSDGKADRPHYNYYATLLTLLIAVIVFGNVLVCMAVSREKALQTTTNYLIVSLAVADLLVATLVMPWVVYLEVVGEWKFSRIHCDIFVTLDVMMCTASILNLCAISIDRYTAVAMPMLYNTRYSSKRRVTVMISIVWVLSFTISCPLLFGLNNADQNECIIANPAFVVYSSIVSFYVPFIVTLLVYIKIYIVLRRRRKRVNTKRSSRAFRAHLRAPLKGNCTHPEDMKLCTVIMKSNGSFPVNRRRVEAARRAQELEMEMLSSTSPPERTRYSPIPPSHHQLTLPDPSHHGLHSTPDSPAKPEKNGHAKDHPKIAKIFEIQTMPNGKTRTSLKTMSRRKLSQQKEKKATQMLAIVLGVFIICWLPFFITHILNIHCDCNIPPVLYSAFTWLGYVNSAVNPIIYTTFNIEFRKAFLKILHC
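D2 cells co-treated with compound plus 50 nM dopamine (EC20) for 90 min at 37 deg C to detect potentiation. Beta-arrestin recruitment was read as enzyme-fragment luminescence after 1 h at ambient temperature. Full response was set by 57 uM dopamine.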
TRPML1 agonist = agonists of human TRPML1 channel; Q9GZU1; TRPML1-expressing cells, Ca2+ dye fluorescence, FDSS; host cell line not named in the record; reference of the full effect not given here; activation, % (test concentration not listed); hit rate 0.12% among 410,000; in the data active = activation above about 50%; inconclusive = about 30% to 50%; inactive = below about 30%; note: 0% is about no effect; the text of the record puts the active cut at 80%
Target sequence (Q9GZU1 whole entry, looked up): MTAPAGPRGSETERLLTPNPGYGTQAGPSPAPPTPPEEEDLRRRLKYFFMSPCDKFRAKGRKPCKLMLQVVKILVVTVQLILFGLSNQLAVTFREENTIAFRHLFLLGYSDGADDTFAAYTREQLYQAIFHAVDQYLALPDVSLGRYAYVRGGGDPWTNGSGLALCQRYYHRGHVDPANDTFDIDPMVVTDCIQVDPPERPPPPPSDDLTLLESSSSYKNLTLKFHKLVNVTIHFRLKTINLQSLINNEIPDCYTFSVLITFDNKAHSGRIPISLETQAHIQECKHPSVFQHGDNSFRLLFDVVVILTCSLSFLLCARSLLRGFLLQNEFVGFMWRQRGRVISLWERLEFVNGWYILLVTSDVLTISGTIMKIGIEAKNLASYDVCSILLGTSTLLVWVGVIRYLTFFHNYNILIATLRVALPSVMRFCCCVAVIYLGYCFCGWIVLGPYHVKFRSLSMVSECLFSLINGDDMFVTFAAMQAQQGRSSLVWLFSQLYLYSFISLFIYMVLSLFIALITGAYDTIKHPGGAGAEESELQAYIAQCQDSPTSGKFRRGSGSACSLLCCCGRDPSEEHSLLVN
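Cells: TRPML1-DL, 1X Tet inducer, ~16 h at 37 degrees C/5% CO2. Dye: ABD Ca8 no-wash + quencher, 45-90 min RT. Read: 10 s baseline, compound add, 110 s agonist phase; 54-4 EC80 (4uM final), 110 s antagonist phase.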
Six1-Eya2 blk = inhibitors of human Six1/Eya2 interaction. activity change, % (concentration not given with the values). AlphaScreen GST-Six1/His-Eya2 binding, biochemical; stronger effect = lower value; control for the full effect not named in the record. AID 651725. hit rate 0.56% among 360,000. Q15475+O00167; in the data active = activity change below about -65%; inconclusive = about -30% to -65%; inactive = above about -30%; note: % is set by controls: 0 for no effect and ±100 for the full control effect
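AlphaScreen with GST-Six1 and His-Eya2 (5X mix: 250 nM and 500 nM), glutathione donor and nickel acceptor beads; buffer 50 mM Tris pH 8.0, 300 mM NaCl, 1 mM TCEP; 1 h at 37 C in the dark.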
D2 agonist = agonists of human D2 dopamine receptor (beta-arrestin); DiscoveRx PathHunter D2 beta-arrestin, luminescence, 90 min; 100% = 57 uM dopamine signal; activation, % (concentration not given with the values); hit rate 0.084% among 360,000; in the data active = activation above about 40%; inconclusive = about 15% to 40%; inactive = below about 15%; note: compound concentration not given in the record; the text of the record calls up to 30% inactive
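Agonist mode: compounds alone added to overnight-plated D2 PathHunter cells for 90 min at 37 C, with 57 uM final dopamine (EC100) defining full response. Beta-arrestin recruitment detected by chemiluminescent reagent, read after 1 h at ambient temperature.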
PINK1 expr mod = modulators of PINK1 expression. PINK1 immunofluorescence, high-content cytometry, 24 h. Potency, µM (doses to about 76.6 µM), for the others: at the highest dose activation (PINK1 increase), actives largely listed as activators. hit rate 0.2% among 410,000; active = well fitted activation curve with a large enough effect; inconclusive = small, poorly fitted or top-dose-only effect; inactive = flat fitted curve, though single readings scatter; cell line not stated here;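 note: potency is the fitted concentration of half-maximal effect; % of control where 0% means no effect; nearly all actives have a fitted effect of over 65% in size; a mitochondrial uncoupler was the plate control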
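PINK1 protein level read as immunofluorescence by microplate cytometer in a fixed, stained stable cell line after 24 h exposure to five compound concentrations, with CCCP as control.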
TRPML1 blocker = inhibitors of human TRPML1 channel | Q9GZU1 | TRPML1-inducible cells, Ca2+ dye fluorescence, FDSS; stronger effect = lower value; inhibition of EC80 agonist-evoked calcium signal | activity change, negative = inhibition, % (test concentration not listed) | hit rate 0.02% among 390,000; in the data active means activity change below about -50%; inconclusive means about -30% to -50%; inactive means above about -30%;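 note: stimulus is agonist 54-4 at its EC80 concentration; % is set by controls: 0 for no effect and ±100 for the full control effect; compound concentration not given in the record; the text of the record puts the active cut at -80%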
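TRPML1-DL cells, Tet-induced overnight (~16 h, 37 °C) at 1,500 cells/well, were loaded with Ca8 no-wash dye plus quencher for 45-90 min at room temperature. Compounds were pinned during FDSS kinetic reading; agonist 54-4 at EC80 (4 uM final) then added.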
Active calls of the source: *; ? = inconclusive; nt = no result given; & = joins results of further samples; [ ] = dose if it differs, or a comment.

Order of values: D2 potentiator	TRPML1 agonist	Six1-Eya2 blk	D2 agonist	PINK1 expr mod	TRPML1 blocker
Cc1nc(-c2cccc(F)c2)sc1CCNC(=O)C(=O)Nc1ccc2c(c1)OCO2
    nt	1.4	nt	nt	2.0%	13.6
O=C(Nn1cnnc1)c1ccc(OC(F)(F)C(F)C(F)(F)F)cc1 (stereo not given)
    -6.8	0.6	-6.6	0.9	0.6%	43.0
O=C(CSc1nnc(-c2ccco2)o1)c1ccc(F)c(F)c1
    1.9	2.8	-0.1	0.0	2.4%	20.1
COc1ccc(CCNC(=O)c2cc(-c3ccc4c(c3)OCO4)on2)cc1OC
    7.1	0.2	3.3	-1.7	-0.3%[38.3 µM]	4.5
COc1ccc(NC(=O)N(C)C[C@H]2OCc3cn(nn3)CCCC(=O)N([C@@H](C)CO)C[C@@H]2C)cc1
    3.7	0.1	4.7	-7.6	1.1%	-8.2
COCCCNC(=O)C1CCC(CNS(=O)(=O)c2ccc(OC)cc2)CC1 (stereo not given)
    -9.2	-0.4&0.5	-9.2	-2.4	0.9%&0.6%	-11.1&2.9
CC1CCc2cc(F)ccc2N1C(=O)CSc1nnc2c(n1)[nH]c1ccc(F)cc12 (stereo not given)
    -8.9	-0.3	-7.2	-0.9	6.3%[38.3 µM]	-7.2
COc1ccc(CN(C)CC(=O)Nc2c(C)cccc2C)c(OC)c1
    -10.7	1.0	-8.5	-2.7	-0.6%	0.2
CC(C)CCn1c(N2CCCC2)nc2c1c(=O)n(C)c(=O)n2C
    -3.3	-1.6	1.0	1.5	2.3%	-3.4
C/C(=N/OC(=O)C1CC1)c1cc(-c2ccc(Cl)cc2)no1
    6.0	0.5	8.4	-0.5	-1.7%	48.4
O=C(NC1CCCCCC1)c1ccco1
    -5.4	4.6	9.2	-3.8	-1.3%	14.5
COc1ccc(C2C(=O)c3ccccc3C2=O)cc1
    -11.1	1.3	-4.9	-5.0	2.8%	9.0
CC(C)CCN(C(=O)c1csnn1)C(C(=O)NC1CCCCC1)c1ccc(F)cc1 (stereo not given)
    -4.8	-0.3	2.3	-6.9	0.8%	-0.6
CCOC(=O)C[C@H]1c2ccccc2S(=O)(=O)N1Cc1cc(OC)c(OC)c(OC)c1
    -41.0	-0.3&-0.7	1.6	0.4	1.9%	11.4
CCCN(C(=O)c1cccs1)c1c(N)n(Cc2ccccc2)c(=O)[nH]c1=O
    1.3	-0.5	7.4	-0.9	-0.2%	6.3
CN(C)S(=O)(=O)N1CCN(c2ccccc2)CC1
    -2.2	1.1	-5.7	-1.5	?	3.5
O=S(=O)(Nc1nc2ccccc2nc1Nc1ccc2c(c1)OCO2)c1ccc(F)cc1
    6.0	0.7	6.1	5.5	-0.5%	14.8
CCc1noc(C)c1C(=O)N(C)CC(=O)Nc1ccccc1C(F)(F)F
    -0.3	-0.8	15.1	1.3	0.5%	-10.2
C[C@@H]1COC(=O)[C@H](Cc2ccc(F)cc2)C/C=C\C[C@@H](CC(=O)NCCO)C(=O)N1
    -3.6	-0.7	3.4	-2.8	1.4%	-3.3
FC(F)c1nnc2ccc(Cl)nn12
    -6.9	0.7	5.1	0.2	0.7%	19.3

Remaining list, next part:
Order of values: D2 potentiator	TRPML1 agonist	Six1-Eya2 blk	D2 agonist	PINK1 expr mod	TRPML1 blocker
O=C1CCCC(=O)C1=C1SCCS1
    -1.1	-0.6	-0.1	-6.3	-0.4%	12.7
Cc1ccc(N/C=C/C(=O)c2sc(-c3ccccc3)nc2C)cc1
    -1.6	4.9	10.7	3.4	10.2%	-2.9
Cc1nnc(SCc2c(Cl)cccc2Cl)n(N)c1=O
    -3.8	0.1	3.0	-2.8	1.4%	-8.9
Cc1ccc(CNC(=O)C(OC(=O)c2cccs2)C(C)C)cc1 (stereo not given)
    -5.9	2.6	11.7	-1.3	-0.3%	-5.3
Brc1ccc(-c2cn3ccccc3n2)cc1
    4.5	0.3	5.6	3.7	0.5%	-5.4
CC1=C(C(=O)N(C(C)C)C(C)C)CC(CC(=O)NCCN2CCOCC2)C(=O)N1CCCN1CCCC1=O (stereo not given)
    -0.4	1.1	6.1	3.4	0.6%	10.8
CC1=C(C(=O)OCc2ccccc2)C(c2ccc(C)cc2)NC(=O)N1 (stereo not given)
    -9.9	-0.1	-6.8	3.6	0.9%	5.7
COc1cccc2cc(C(=O)Nc3ccc(F)cc3)c(=Nc3ccc(C(=O)O)cc3)oc12
    -11.9	3.4	-0.1	1.3	-1.1%	-24.2
Cc1cccc(-c2nc(Cn3c(SCc4cccc(C(F)(F)F)c4)nc4ccncc43)c(C)o2)c1
    nt	3.5	nt	nt	2.3%	-6.7
CCc1ccc(Nc2nc(C)cc(C)c2C(N)=O)cc1
    -17.7	0.9	10.8	-4.2	4.2%	-16.7
CCc1cccc(NC(=O)C2CCCN2C(=O)Nc2ccc(C)cc2)c1 (stereo not given)
    -19.7	0.7	-0.4	-2.9	14.0%	19.2
CN(C)c1ccc(C(=O)NCCCSc2ccccc2)cc1
    -16.9	2.9	-16.4	-1.1	-1.5%	5.4
CCN(CC)CCn1c(=S)[nH]c2cc(C(=O)NCc3ccccc3)ccc2c1=O
    -22.2	-0.7	-1.0	-0.9	1.6%	-5.7
COc1cccc(-c2noc(-c3cccs3)n2)c1
    -7.9	-0.3	54.4	-3.4	3.9%	-7.1
CCc1ccc2nc(Nc3ncc(C(C)=O)c(C)n3)nc(C)c2c1
    -18.1	-0.5	-4.9	5.2	2.7%	1.8
O=C1c2cccnc2C(=O)N1Cc1ccc(S(=O)(=O)N2CCN(c3ccccc3)CC2)cc1
    -6.2	-0.2	-0.4	-2.6	5.0%	-0.9
COc1cccc(/C=C(/CC(=O)Nc2ccc(N3CCOCC3)cc2)c2nc3ccccc3s2)c1
    -33.1	0.3	-22.6	-1.7	3.6%	-3.0
O=C(CCC1CCCCC1)Nc1nccs1
    -14.2	5.2	8.7	0.4	0.4%	-9.9
COc1ccc(NC(=O)N(C)C[C@H]2Oc3ccc(NC(=O)CCN4CCOCC4)cc3C(=O)N([C@H](C)CO)C[C@@H]2C)cc1
    0.3	0.3	1.2	0.7	1.0%	-11.9
CCN1CCN(CCCN(Cc2ccco2)C(=S)Nc2ccc(Cl)c(C)c2)CC1
    -10.9	0.5	-12.1	-1.5	0.6%	9.5

Three compounds out of the list above, sorted by the value under D2 potentiator, lowest first.
molecule	D2 potentiator
CCc1ccc2nc(Nc3ncc(C(C)=O)c(C)n3)nc(C)c2c1	-18.1
CC(C)CCN(C(=O)c1csnn1)C(C(=O)NC1CCCCC1)c1ccc(F)cc1 (stereo not given)	-4.8
Brc1ccc(-c2cn3ccccc3n2)cc1	4.5

Later entries.
Order of values: D2 potentiator	TRPML1 agonist	Six1-Eya2 blk	D2 agonist	PINK1 expr mod	TRPML1 blocker
O=C(O)CCN=C1CCCc2ccccc2N1
    2.2	0.0	6.1	-1.4	9.0%	25.9
CC1OC(COCc2ccccc2)Cc2[nH][nH]c(=O)c21 (stereo not given)
    nt	-0.7	-3.6	nt	1.0%	nt
O=C1c2cccc3cccc(c23)C(=O)N1c1ccncc1
    -11.5	-0.2	5.0	-0.2	-0.3%	5.1
COc1ccc(NC(=O)CSc2nnnn2C)c([N+](=O)[O-])c1
    1.4	-0.5	12.5	5.2	1.4%	1.6
O=c1c2cccc3c2c(nn1CN1CCOCC1)-c1ccccc1-3
    11.6	0.6	?	11.3	-3.3%	17.0
COc1ccc(CCNCc2ccc(OCc3ccc(Cl)nc3)c(OC)c2)cc1OC
    -28.8	0.9	-7.2	1.2	-1.8%	15.4
Cc1nc2cc(NC(=O)N3CCCCC3)ccc2n1C
    -12.2	-0.6	-3.0	-0.8	0.0%	-9.0
COc1ccc(NC(=O)N2CCN(C(=O)c3ccco3)CC2)c(OC)c1
    -19.4	-0.1	-0.4	-1.8	0.5%	-8.1
CC(C)(C)NC(=O)COC(=O)c1snc(C(=O)NC2CCCCC2)c1N
    -1.2	1.2	7.4	-0.3	-2.6%	25.1
Cc1ccc(NC(=S)N2CCN(Cc3ccccc3)CC2)c(C)c1
    -8.7	1.0	-1.9	-3.7	-0.8%	-5.0
CC1(C)CC(NS(=O)(=O)c2ccccc2)CC(C)(C)N1
    -0.6	-0.4	12.6	-0.3	0.1%	-7.5
O=C(O)CC(NS(=O)(=O)Cc1ccccc1)c1cccc([N+](=O)[O-])c1 (stereo not given)
    -0.6	0.6	-0.7	-1.8	1.6%	-6.6
CCOc1ccc(C(=O)c2cn(CC(=O)Nc3ccc(Cl)cc3)c3cc4c(cc3c2=O)OCO4)cc1
    nt	0.1	nt	nt	1.4%	-6.6
NC(=O)c1nn(-c2ccccc2)nc1NC(=O)CN1CCOCC1
    0.4	nt	1.4	1.6	-0.1%	nt
O=C(Cc1ccc(-c2ccccc2)cc1)NCc1cccnc1
    -0.9	0.3	-2.0	-0.3	13.1%	-9.5
OCCC1CN(Cc2nc3ccccc3[nH]2)CCN1C1CCCC1 (stereo not given)
    -2.9	-0.6	-2.8	1.2	1.4%	-5.8
CCCn1c(N)c(C(=O)CSc2nnc3n2CCCCC3)c(=O)n(C)c1=O
    -18.2	-0.5	-6.2	-2.1	1.5%	26.3
C=CC[C@H](CC(=O)N(CCO)Cc1ccccc1)C(=O)N[C@H](COC(=O)[C@H](CC=C)CC(=O)OC(C)(C)C)Cc1c[nH]c2ccccc12
    nt	0.0	-14.3	5.2	1.5%	-2.1
CCC(c1nnnn1C1CCCC1)N1CCN(c2ccccc2)CC1 (stereo not given)
    -8.2	-0.3	3.5	1.4	-1.1%	32.3
O=Cc1ccccc1-n1cncn1
    -4.5	-0.5	1.8	-3.3	1.2%	-9.5

Individual results from above:
CC1(C)CC(NS(=O)(=O)c2ccccc2)CC(C)(C)N1 in D2 agonist: -0.3
Cc1ccc(NC(=S)N2CCN(Cc3ccccc3)CC2)c(C)c1 in D2 agonist: -3.7

(next part)
Order of values: D2 potentiator	TRPML1 agonist	Six1-Eya2 blk	D2 agonist	PINK1 expr mod	TRPML1 blocker
COCCNC(=O)CCn1c(=O)c2cc(OC)c(OC)cc2n(CC(=O)Nc2ccccc2C)c1=O
    nt	0.0	nt	nt	1.0%	13.0
O=c1cc(CN2CCN(CCO)CC2)c2cc3c(cc2o1)CCC3
    -9.1	-1.0	-1.1	-1.2	-4.7%	-5.1
CCN1CCN(C(=O)Nc2ccccc2OC)CC1
    -19.4	-0.5	-0.2	-2.9	1.0%[38.3 µM]	-5.0
COC1CC(C)NC(=S)N1 (stereo not given)
    -2.3	-0.2	14.6	-5.4	0.9%	-12.0
O=C(O)c1ccc(N2CCN(c3ccc(Cl)cc3)CC2)c([N+](=O)[O-])c1
    -5.0	0.7	1.4	-3.9	-0.5%	-14.8
Cc1cccc(N2C(=O)N3[C@H](c4ccc(F)cc4)[C@@H]4C(=O)N(C5CCCCC5)C(=O)[C@@H]4[C@]3(Cc3ccc(Cl)cc3)C2=O)c1
    -6.4	-0.3	-3.2	-3.3	-0.3%	8.2

Screening data deposited in PubChem BioAssay by National Center for Advancing Translational Sciences (NCATS).

Hits appear at their usual frequency, and some 1% of all compounds hit somewhere here.
